# Compound activity deposited in PubChem by Johns Hopkins Ion Channel Center.
# KCNQ2 block = KCNQ2 potassium channel inhibitors, primary screen, cell-based, CHO-K1, FluxOR thallium flux, B-score (AID 2156) | Potassium voltage-gated channel subfamily KQT member 2 (Rattus norvegicus), O88943 | 20 min; stronger effect = lower value; only compounds with negative scores are shown here; some inactives read as strong as hits | B-score at 10 µM | 310,000 compounds, 1.1% hits;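 active = fluorescence ratio B-score at most minus 3 library SDs, with starting brightness B-score within 2 library SDs, cut at about -5.5 in these data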
# Target sequence (O88943 whole entry, looked up): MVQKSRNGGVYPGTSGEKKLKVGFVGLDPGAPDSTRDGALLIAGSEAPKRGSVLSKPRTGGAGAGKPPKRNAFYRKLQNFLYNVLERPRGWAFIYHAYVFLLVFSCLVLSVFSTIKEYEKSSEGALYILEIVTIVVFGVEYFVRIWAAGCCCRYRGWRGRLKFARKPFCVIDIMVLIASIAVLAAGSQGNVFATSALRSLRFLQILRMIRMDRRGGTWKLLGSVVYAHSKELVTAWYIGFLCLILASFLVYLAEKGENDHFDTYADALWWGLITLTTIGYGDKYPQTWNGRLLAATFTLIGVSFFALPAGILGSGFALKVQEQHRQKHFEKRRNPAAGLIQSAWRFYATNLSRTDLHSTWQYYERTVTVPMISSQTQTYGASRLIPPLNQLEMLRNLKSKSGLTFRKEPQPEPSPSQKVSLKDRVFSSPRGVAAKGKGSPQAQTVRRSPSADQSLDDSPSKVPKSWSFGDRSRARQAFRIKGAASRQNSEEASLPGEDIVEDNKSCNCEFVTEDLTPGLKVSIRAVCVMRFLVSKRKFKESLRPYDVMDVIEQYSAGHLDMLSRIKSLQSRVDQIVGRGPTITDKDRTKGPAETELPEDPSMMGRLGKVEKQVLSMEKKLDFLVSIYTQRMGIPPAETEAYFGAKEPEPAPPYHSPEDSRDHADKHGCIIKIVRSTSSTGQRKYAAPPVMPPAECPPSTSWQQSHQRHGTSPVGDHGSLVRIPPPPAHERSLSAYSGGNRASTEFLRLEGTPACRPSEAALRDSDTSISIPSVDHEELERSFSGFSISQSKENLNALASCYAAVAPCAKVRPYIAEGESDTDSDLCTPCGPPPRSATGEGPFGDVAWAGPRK
# KCNQ2 block baseline = further read-out of KCNQ2 block, marked with its call; B-score; measured here: initial fluorescence intensity artifact check;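 brightness before thallium and not channel activity; 0 = typical well and far values either way flag optical interference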
# Active calls of the source: *; i = inactive. A portion of the library, so the mix of outcomes need not match the whole.
mol,KCNQ2 block,KCNQ2 block baseline
CC(C)Cn1c(-c2ccccc2F)n[nH]c1=S,i,1.4
CC(Oc1cc2oc(=O)c3c(c2cc1Cl)CCCC3)C(=O)NCc1ccccn1 (stereo not given),i,1.6
CC1CCc2nc(NC(=O)c3ccc(S(=O)(=O)N4CCCc5ccccc54)cc3)sc2C1 (stereo not given),i,-0.58
CCN=c1scc(C)n1/N=C/c1cc(Br)c(O)c(OC)c1,i,-3.3
CCn1c(C)c(C)c2cc(C(=O)NCCN3CCOCC3)ccc21,i,-0.33
O=c1c([N+](=O)[O-])c(N2CCCCCC2)c2ccccc2n1-c1ccccc1,i,0.02
O=S1(=O)CCN(Cc2csc(-c3cccs3)n2)CC1,i,0.12
CN(Cc1cnn(C)c1)Cc1nc(C(c2ccccc2)c2ccccc2)no1,i,0.28
CN(C)C(=O)c1ccccc1Sc1cc(Cl)ccc1Cl,i,-0.48
O=C(CCNC(=O)N1CCn2c1nc1ccccc12)NCc1ccc(F)cc1,i,-0.01
OC(CNCc1ccccc1Cl)C(F)(F)F (stereo not given),i,0.04
O=C1CC(c2cccc(F)c2)c2c(c3ccccc3[nH]c2=O)O1 (stereo not given),i,0.42
CN(C(=O)COC(=O)C1CCN(S(=O)(=O)c2cccs2)CC1)c1ccccc1,i,0.7
CCOC(Cn1c(CCCO)nc2ccccc21)OCC,i,0.33
Cc1ccc(S(=O)(=O)NCCCNS(=O)(=O)c2ccccc2)cc1,i,-1.1
COc1cccc(-c2cc(C(=O)N3N=C(C)CC3(O)C(F)F)c3ccccc3n2)c1 (stereo not given),i,-0.62
Cc1coc2c(C)c3oc(=O)c(CCC(=O)N(C)CC(=O)O)c(C)c3cc12,i,0.02
O=C(CSC1=NS(=O)(=O)c2cc(Cl)ccc2N1)NCc1ccc(F)cc1,i,0.73
CCN(CC)c1ccc(NC(=O)CN2C(=O)CC(C)(C)S(=O)(=O)c3ccccc32)c(C)c1,i,-2
Cc1ccc(NC(=O)CSc2nnc(Cc3cccn3C)n2-c2ccc(F)cc2)cc1,i,1.2
CCOC(=O)c1sc(C)c2c(=O)n(CC(=O)c3ccc(Br)cc3)nnc12,i,-1.7
O=C(c1ccc2c(c1)OCO2)C1CCCN(Cc2ccc3cccc(F)c3n2)C1 (stereo not given),i,-3
O[C@@H]1COC(Nc2ccc(N=Nc3ccccc3)cc2)C[C@@H]1O (stereo not given in full),i,0.11
CCCCn1c(N)c(N(CCC(C)C)C(=O)C2CCCO2)c(=O)[nH]c1=O (stereo not given),i,0.41
COc1ccc(C(=O)/C=C/C(=O)N(Cc2ccc3c(c2)OCO3)C(C(=O)NC2CCCCC2)c2ccncc2)c(O)c1 (stereo not given),i,-2
O=C(COC(=O)c1cc(Cl)ccc1Cl)NCCN1C(=O)CSC1=O,i,1.9
Cc1ccc(NC(=O)C(=O)NCc2ccccn2)cc1,i,-0.05
O=[N+]([O-])c1cc(C(F)(F)F)cc([N+](=O)[O-])c1Sc1n[nH]c(C(F)(F)F)n1,i,-1.5
C=CCOc1nc2c(c(=O)n(C)c(=O)n2C)n1C,i,-1.8
CCC1CC(CSc2ncn[nH]2)OC1=O (stereo not given),i,-1.4

# 6 compounds already listed, ordered by molecular weight, smallest number first.
mol,KCNQ2 block,KCNQ2 block baseline
CC(C)Cn1c(-c2ccccc2F)n[nH]c1=S,i,1.4
O=c1c([N+](=O)[O-])c(N2CCCCCC2)c2ccccc2n1-c1ccccc1,i,0.02
Cc1ccc(S(=O)(=O)NCCCNS(=O)(=O)c2ccccc2)cc1,i,-1.1
CCN=c1scc(C)n1/N=C/c1cc(Br)c(O)c(OC)c1,i,-3.3
Cc1coc2c(C)c3oc(=O)c(CCC(=O)N(C)CC(=O)O)c(C)c3cc12,i,0.02
O=C(c1ccc2c(c1)OCO2)C1CCCN(Cc2ccc3cccc(F)c3n2)C1 (stereo not given),i,-3

# Back to the main list, repeating the two entries before the break.
mol,KCNQ2 block,KCNQ2 block baseline
C=CCOc1nc2c(c(=O)n(C)c(=O)n2C)n1C,i,-1.8
CCC1CC(CSc2ncn[nH]2)OC1=O (stereo not given),i,-1.4
O=C(CCc1ccccc1)NCC(c1ccco1)N1CCc2ccccc21 (stereo not given),i,-0.99
Cc1cccc2cc(CN(CC3CCCO3)C(=O)NC3CCCCC3)c(=O)[nH]c12 (stereo not given),i,-0.99
Cc1cccc(N(C(=O)CCC(=O)Nc2ccccn2)C(C(=O)NC(C)C)c2ccc(O)cc2)c1 (stereo not given),i,0.92
CCOC(=O)c1ccc2[nH]c3c(c2c1)CCCC3O (stereo not given),i,1.1
O=C(COc1cccc2cccnc12)NCC(F)(F)F,i,-0.23
Cc1ccc(CN2CCN(Cc3ccc(OCCO)cc3)CC2CCO)o1 (stereo not given),i,0.15
Cc1cc2oc(=O)cc(CN3CCC(C)CC3)c2cc1C,i,0.53
CN1CCN(c2ccc(Cl)cc2NC(=O)c2ccc([N+](=O)[O-])cc2)CC1,i,2.6
COc1ccccc1COCC(O)CN(Cc1ccco1)Cc1ccccc1O (stereo not given),i,-0.55
OCCn1c(Cl)nc2ccccc21,i,-2
O/N=C(\CN1CCCCC1)c1ccccc1,i,-1.5
CN(C)S(=O)(=O)c1ccc(NC(=O)C2CC(=O)N(Cc3ccccc3)C2)cc1 (stereo not given),i,1.8
CCc1ccccc1NC(=O)C1C(c2ccccc2)C1(Cl)Cl (stereo not given),i,0.33
CC(C)=CCC/C(C)=C/CC/C(C)=N/O,i,-0.71
O=C(/C=C/c1ccc(Br)cc1)NC(=S)N1CCOCC1,i,-0.46
CN1C(=O)c2ccc(S(=O)(=O)c3ccc(C(=O)O)cc3)cc2C1=O,i,-0.05
S=C(NCc1ccccc1)N1CCN(c2ccccc2)CC1,i,-0.93
CC(C)CC(NC(=O)c1ccccc1)C(=O)OCC(=O)Nc1ccc(S(N)(=O)=O)cc1 (stereo not given),i,-0.5
CC(=O)Nc1ccc(S(=O)(=O)NCCN2CCOCC2)cc1,i,-1.7
CN(C)C(CNc1ccc(C(N)=O)cc1[N+](=O)[O-])c1ccccc1 (stereo not given),i,2.8
CCc1c(C#N)sc(C(N)=O)c1CC,i,0.91
O=C(NCc1ccncc1)C(=O)NCC1OCCCN1S(=O)(=O)c1cc(F)ccc1F (stereo not given),i,-1.1
COc1ccc(OC)c(NC(=O)Cn2cc(C#N)c3cc(Br)ccc32)c1,i,-0.4
COc1ccc(-n2c(SCC(N)=O)nc3sc4c(c3c2=O)CCN(C)C4)cc1,i,1.3
N#Cc1nc(COc2ccccc2)oc1N1CCC(Cc2ccccc2)CC1,-11*,0.73*
Cc1nn(CCc2nn[nH]n2)c2nc(-c3ccc(C4CCCCC4)cc3)cc(C(F)(F)F)c12,i,-1.3
Cc1ccc(S(=O)(=O)N2CCCC(C(=O)NCc3cccnc3)C2)cc1Cl (stereo not given),i,1.4
Cc1onc(-c2ccccc2Cl)c1C(=O)OCC(=O)Nc1cccc(S(=O)(=O)N2CCOCC2)c1,i,1.1
CCCC(CCC(=O)Nc1nccs1)C(=O)O (stereo not given),i,1.2
O=C(O)c1cccc(S(=O)(=O)Nc2ccc3c(c2)OCO3)c1,i,0.41

# Next section:
SMILES | KCNQ2 block | KCNQ2 block baseline
CCOc1cnc(-c2c(-c3c(F)cccc3Cl)noc2C)o1 | i | -1
Cc1ccc(C)c(NC(=O)c2cc3c([nH]c4ccccc43)c(C)n2)c1 | i | 1.8
O=c1cc(CO)oc(C(Nc2ccccn2)c2ccsc2)c1O (stereo not given) | i | -0.8
O=S1(=O)CC=C(CSC(=S)NC2CCS(=O)(=O)C2)C1 (stereo not given) | i | 0.71
Brc1ccccc1CN1CCC(Cc2ccccc2)CC1 | i | -1.8
CCC1CN(C(=O)Nc2cccc(C)c2)c2cc(C)ccc2O1 (stereo not given) | i | -1.2
Cc1[nH]c(=O)[nH]c(=O)c1S(=O)(=O)N1c2ccc(F)cc2CCC1C (stereo not given) | i | 0.97
O=C(Cc1ccccc1[N+](=O)[O-])NC1CC1 | i | -1.2
COc1cc(/C=C(\NC(C)=O)C(=O)NC(C)(C)C)ccc1OC(C)=O | i | 1.5
Cc1cccc(NS(=O)(=O)c2ccc(C(=O)NCC(c3ccco3)N3CCCCC3)cc2)c1C (stereo not given) | i | -1.2
COc1ccc(CN(C)C(=O)c2cccc(S(=O)(=O)N3CCN(c4ccccc4)CC3)c2)c(OC)c1OC | i | 0.14
COc1ccc(/C=N/Nc2nc(-c3cccnc3)nc3ccccc23)cc1OC | i | -0.08
COc1ccc(S(=O)(=O)N2CCCC2CNC(=O)C(=O)Nc2cccc(F)c2)cc1 (stereo not given) | i | -1.5
COc1ccc(N=c2cc(-c3ccc(OC)cc3)oc3ccccc23)cc1 | i | -1.5
O=c1c2ccccc2nc(SCc2ccc([N+](=O)[O-])cc2)n1-c1ccc(Cl)cc1 | i | -0.57
O=C(c1cc2ccccc2cc1O)N1CCCC(C(F)(F)F)C1 (stereo not given) | i | -2.8
O=C(CNCC1CCCO1)Nc1ccc([N+](=O)[O-])cc1C(=O)Nc1ccccc1F (stereo not given) | i | 0.51
COc1ccc(Cl)cc1NC(=O)N(C)Cc1c(C)nn(C)c1C | i | -1.3
Cc1c(C(=O)N2CCCCC2)c(S(=O)(=O)N2CCN(c3ccc(F)cc3)CC2)c(C)n1C | i | 1.1
COc1ccc(C(=O)/C=C/Nc2ccc(S(=O)(=O)Nc3cccc(C(C)=O)c3)cc2)cc1 | i | -1.4
Fc1ccc(OCc2nn[nH]n2)c(F)c1 | i | -1.2
O=C1CC(C(=O)N2CCN(S(=O)(=O)c3cccc(F)c3)CC2)CN1Cc1ccccc1Cl (stereo not given) | i | -0.2
COc1nc2ccccc2c(=O)n1OCC(C)C | i | 1.9
Cn1c(SCC(=O)Nc2nccs2)nnc1-c1ccco1 | i | 2.3
COC(=O)c1ccc(NS(=O)(=O)c2cc(-c3cc(C)no3)ccc2OC)cc1 | i | -1.6

# An excerpt of these results, with values under each structure:
# Every second line gives: KCNQ2 block	KCNQ2 block baseline
O=S1(=O)CCN(Cc2csc(-c3cccs3)n2)CC1
  i	0.12
CC1CCc2nc(NC(=O)c3ccc(S(=O)(=O)N4CCCc5ccccc54)cc3)sc2C1 (stereo not given)
  i	-0.58

# Remaining list, next part:
SMILES | KCNQ2 block | KCNQ2 block baseline
Cc1ccc(NC(=O)CC2C(=O)OCC3CCCCN32)cc1Cl (stereo not given) | i | 1.5
O=C(Nc1ccc2c(c1)OCO2)C1CCCCN1S(=O)(=O)c1ccccc1 (stereo not given) | i | 0.01
O=C(COc1cccc2c1CCN(Cc1ccccc1)C2=O)NCc1ccco1 | i | -0.01
COc1cccc2cc(/C(C)=N/Nc3nc(-c4cc(C)ccc4C)cs3)c(=O)oc12 | i | 0.26
CC(=O)Nc1ccc(Nc2ncnc3c2nnn3Cc2ccccc2Cl)cc1 | i | -0.61
Cc1[nH]c2ccccc2c1CN1CCc2ccccc2C1 | i | -0.85
COc1ccc(NC(=O)CSc2nc3n[nH]c(C)c3c(=N)n2-c2ccc(Cl)c(C)c2)cc1OC | i | -1.3
CCOC(=O)c1cnc2ccc(C(=O)OC)cc2c1NCCc1ccc(OC)c(OC)c1 | i | 0.33
O=C(Nc1ccc(Cl)cc1)N1CCCN(Cc2ccc(F)cc2)C1 | i | -1.5
O=C(CN1C(=O)CCC1=O)Nc1nc(-c2cccs2)cs1 | i | -0.35
Cc1ccc(-c2cc(C(=O)N3CCC(C)CC3)c3ccccc3n2)cc1 | -8.3* | -0.94*
CCS(=O)(=O)N1CCN(C2CCC(C)CC2)CC1 (stereo not given) | i | -0.03
CCn1c(SCc2nc3ccccc3c(=O)[nH]2)nnc1-c1ccncc1 | i | 0.63
CO/N=C/c1cccn1-c1nccc(OC)c1C#N | i | -0.5
O=C(CCCCCNC(=O)c1ccccc1)N/N=C/c1ccc(F)cc1 | i | -0.6
COc1ccc(C(=O)NCc2nnc(SCC(=O)NCc3ccco3)o2)cc1 | i | -1.6
CCOc1ccc(S(=O)(=O)NN=C2CCN(C(C)=O)CC2)cc1 | i | 0.46
COC(=O)c1ccc(OC(=O)CCN2c3ccccc3Sc3ccccc32)cc1 | i | -0.77
O=C(COC(=O)CNS(=O)(=O)c1ccc(F)c(F)c1F)NCCc1ccccc1 | i | -2.7
CCCc1cc(=O)[nH]c(SCc2cc(=O)oc3c(C)c(C)ccc23)n1 | i | -0.22
FC(F)(F)c1cccc(N2CCN(CC3CC=CCC3)CC2)c1 (stereo not given) | i | -2.1
Cc1c(Cl)c([N+](=O)[O-])nn1Cc1ccc(C(=O)NN)o1 | i | 1.4
COC1=C(C)C(O)=C(C(=O)/C=C/c2ccccc2)C(=O)C1(C)C | i | 2.4
Cc1cccc(NC(=S)NCCC(c2ccccc2)c2ccccc2)c1 | i | -1.2
Cc1ccc(N2CC(C(=O)Nc3nnc(SCc4cccnc4)s3)CC2=O)cc1 (stereo not given) | i | -0.51
CC1CC(C)CN(S(=O)(=O)c2cccc3nonc23)C1 (stereo not given) | i | -0.01
CC1CCc2nn(CC(=O)NCCC3=CCCCC3)cc2C1 (stereo not given) | i | -2.1
O=C(c1ccco1)N1CCN(C(=O)c2cnn3cccnc23)CC1 | i | 1.3
CCN=C1S/C(=C\c2ccc(N3CCOCC3)cc2C)C(=O)N1CC | i | 1.4
CCOc1ccc(CN2CCN(S(=O)(=O)c3ccc(NC(C)=O)cc3)CC2)cc1OC | i | 0.62
Cc1cc(C=C2C(=O)c3ccccc3C2=O)c(C)n1-c1ccc(Cl)cc1 | i | -0.8
Cn1c(-c2ccc3c(c2)OCO3)cnc1NCc1cccc(Cl)c1 | -9* | -2.4*
